Beta apoptosis: beta cell apoptosis inhibition; actives 0.8% (n = 300,000); protection from apoptosis, % (no concentration beside the values); INS-1E cytokine-induced death, ATP luminescence, 48 h; percent of positive-control rescue, neutral wells zero; AID 435005;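 active = all replicates at 75% or more, or half of them and the mean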;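 also: 0% = cytokine-treated negative control wells and 100% = positive control rescue; higher means more ATP so stronger rescue from cytokine killing; wells of about 40 µL received 100 nL stock; the first replicate is given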
Beta2AR agonist: agonists of human beta-2 adrenergic receptor inducing internalization; Am2.2-beta2AR cells, FAP receptor internalization, flow cytometry; reference of the scale not given here; response, % (no concentration beside the values); actives 0.43% (n = 340,000); AID 504454;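 active = response above a set limit, near 3 SD of response in nonfluorescent compounds, cut at about 42% in these data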;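 also: stock transfer was 100 nL into about 11 µL; a reference agonist was the positive control; negative values mostly stem from fluorescent compounds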
Target sequence (P07550 whole entry, looked up): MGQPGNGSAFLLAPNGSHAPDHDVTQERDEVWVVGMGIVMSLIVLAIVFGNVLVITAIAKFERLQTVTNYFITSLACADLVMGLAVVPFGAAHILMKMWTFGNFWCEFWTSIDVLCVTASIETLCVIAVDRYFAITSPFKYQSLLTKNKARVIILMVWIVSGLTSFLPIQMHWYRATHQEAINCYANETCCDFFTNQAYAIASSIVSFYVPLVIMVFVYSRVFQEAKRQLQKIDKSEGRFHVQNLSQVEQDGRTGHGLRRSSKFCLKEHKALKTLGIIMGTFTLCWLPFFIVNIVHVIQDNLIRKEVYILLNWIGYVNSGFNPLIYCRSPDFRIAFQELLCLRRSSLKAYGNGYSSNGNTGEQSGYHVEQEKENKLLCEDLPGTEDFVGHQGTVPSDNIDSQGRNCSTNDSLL
LANA-H2A inh: blocks KSHV LANA binding to histone H2A/H2B; actives 0.6% (n = 320,000); cell-free LANA-H2A/H2B peptide, fluorescence polarization; inhibition, % (no concentration beside the values); Q9QR71; in the data active = inhibition mostly above about 10%, no sharp cut-off; inactive = mostly below about 6.7%;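 also: stock transfer was 7.5 nL into about 10 µL; 0% = median of vehicle wells and 100% = median of positive control wells; one replicate is shown; the record names a cut of 25% in any replicate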
Calb FLC: C. albicans growth modulation with fluconazole; growth inhibition, % (test concentration not listed); C. albicans CaCi-2 (fluconazole-resistant clinical isolate) + fluconazole, Alamar Blue growth, 48 h; actives 0.57% (n = 300,000);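 active = most replicates above 75%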;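 also: all wells also contain fluconazole at 8 µg/ml as a sub-toxic cotreatment; 0% = median of DMSO wells and 100% = median of geldanamycin control wells; wells of about 8 µL received 7.5 nL stock; the first replicate is given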
A1 inh: inhibitors of the anti-apoptotic protein A1, read as caspase activation. actives 0.066% (n = 330,000). caspase activation, % (test concentration not listed). MEF A1-2A-BIM cells, Caspase-Glo 3/7 luminescence, 3 h; percent of clofoctol response, vehicle zero;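 active = over half of replicate activation scores above 10%, or exactly half above 10 with the replicate mean above 10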;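 also: wells of about 30 µL received 50 nL stock; many hits fall short of the cut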
ALR H2O2 inh: inhibitors of human sulfhydryl oxidase ALR; P55789; purified ALR, DTT oxidation, H2O2 HRP-luminol luminescence; inhibition, % (no concentration beside the values); actives 3.8% (n = 290,000); AID 485317;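 active = mean and each replicate at 75% or more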;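 also: stock transfer was 7.5 nL into about 7.5 µL; 0% = neutral wells and 100% = wells with inactivated enzyme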
Target sequence (P55789 whole entry, looked up): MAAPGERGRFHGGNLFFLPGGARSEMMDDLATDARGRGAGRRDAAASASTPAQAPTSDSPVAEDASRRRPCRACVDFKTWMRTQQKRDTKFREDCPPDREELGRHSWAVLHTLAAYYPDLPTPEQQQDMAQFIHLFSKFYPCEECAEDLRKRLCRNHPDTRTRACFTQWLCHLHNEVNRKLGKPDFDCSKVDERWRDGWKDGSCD
Ecoli rRNA inh: inhibits bacterial ribosomal RNA function over humanized ribosomes | GFP signal change (wild-type ribosome), % (test concentration not listed) | E. coli WT GFP vs humanized-ribosome RFP mutants, fluorescence, 24 h; stronger effect = lower value; DMSO median 0, no signal -100 | actives 1.6% (n = 350,000);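 active = significant combined selectivity score with lowered wild-type GFP, culture density cut under 30%, mutant RFP and density less affected; inactive = any of these conditions unmet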; also: one replicate is shown; some compounds called inactive have numbers as strong as hits
T cruzi inh: T. cruzi replication inhibition; T. cruzi beta-gal in NIH3T3, luminescence, 90 h; AID 1885; actives 1.4% (n = 300,000); inhibition, % (test concentration not listed);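 active = mean inhibition across valid replicates above about 55%, limit read from the data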;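 also: signal also drops with host cell toxicity which is not excluded here; 0% = plate median of DMSO wells and 100% = zero luminescence signal; higher percent means less beta-gal luminescence so fewer parasites; stock transfer was 50 nL into about 50 µL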
Ecoli rRNA inh OD600: also measured in Ecoli rRNA inh; calls as there; OD600 change, %; measured here: OD600 growth;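 optical density of the mix in the first replicate; 0 = DMSO median and -100 = no signal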
Ecoli rRNA inh RFP: further read-out of Ecoli rRNA inh, marked with its call; RFP signal change, %; measured here: RFP humanized mutant strains;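 first replicate; 0 = DMSO median and -100 = no signal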
The depositor's hits bear a star; nt = no result given. The list is partial; rates above refer to the full screens.

Sample of the layout (two entries):
SMILES	Beta apoptosis	Beta2AR agonist	LANA-H2A inh	Calb FLC	A1 inh	ALR H2O2 inh	Ecoli rRNA inh	Ecoli rRNA inh OD600	Ecoli rRNA inh RFP	T cruzi inh
COc1ccc(NC(=O)COC(=O)Cc2c(F)cccc2Cl)cc1	-5.8	8.1	-2.3	-13.6	1.2	2.4	-5.2	-14.9	-3.1	3.4
COc1cccc(CC2(CO)CCCN(Cc3cn[nH]c3C3CCCCC3)C2)c1 (configuration not stated)	-2.8	-3.3	-0.3	5.3	-0.1	-15.9	9.5	-0.1	0.1	27.1

The whole of this part, repeating the preview:
SMILES	Beta apoptosis	Beta2AR agonist	LANA-H2A inh	Calb FLC	A1 inh	ALR H2O2 inh	Ecoli rRNA inh	Ecoli rRNA inh OD600	Ecoli rRNA inh RFP	T cruzi inh
COc1ccc(NC(=O)COC(=O)Cc2c(F)cccc2Cl)cc1	-5.8	8.1	-2.3	-13.6	1.2	2.4	-5.2	-14.9	-3.1	3.4
COc1cccc(CC2(CO)CCCN(Cc3cn[nH]c3C3CCCCC3)C2)c1 (configuration not stated)	-2.8	-3.3	-0.3	5.3	-0.1	-15.9	9.5	-0.1	0.1	27.1
Cc1cccc2sc(NC(=O)C3c4ccccc4Oc4ccccc43)nc12	46.2	24.9	3.2	-1.5	0.3	-5.7	6.2	4.2	6.5	22.6
CCC(C)(C)NC(=O)C(c1cccn1C)N(Cc1ccc(C)cc1)C(=O)Cn1nnc2ccccc21 (configuration not stated)	7.7	-1.0	2.6	-9.0	0.3	nt	nt	nt	nt	4.5
COc1ccc(-c2ccc3c(c2)S(=O)(=O)c2cccc(C(=O)N4CCN(c5c(Cl)cncc5Cl)CC4)c2C3=O)cc1OC	4.7	24.4	-4.4	nt	2.7	-0.9	25.0	7.7	12.3	nt
COc1ccc(C(C(=O)NCC2CCCO2)N(C(=O)c2snc(C(N)=O)c2N)c2ccc(C)cc2)cc1OC (configuration not stated)	nt	2.8	nt	-1.8	nt	nt	-0.5	-9.0	-2.2	-11.4
COc1ccc(C2CC(c3c(Cl)cccc3Cl)n3nc(N)nc3N2)cc1 (configuration not stated)	-5.8	4.3	3.9	4.5	-1.1	-14.7	-2.1	-4.3	-1.4	20.9
Cc1cc(Oc2ccc(Cl)cc2)nc(SCC(=O)c2ccccc2)n1	nt	-7.8	-5.5	-25.9	-3.2	-9.6	11.0	4.4	0.8	26.7
COc1cc(CNC(=O)c2cccc(COc3ccc(Cl)cc3)c2)cc(OC)c1	-1.0	3.2	0.3	-0.9	-1.7	-1.7	-8.0	-26.6	-1.4	37.1
CCOC(=O)CC(=O)CSc1nc2c(c(C)c1C#N)CCC2	-7.1	-5.3	3.6	29.6	0.2	-4.2	nt	nt	nt	0.6
CC(=O)Nc1ccc(NC(=O)COc2c(C)cc(Br)cc2C)cc1	-7.7	-4.9	-3.3	-43.3	-1.1	0.1	6.6	11.1	-1.8	-5.8
O=C(COC(=O)/C=C/c1ccco1)NCc1ccc2c(c1)OCO2	0.1	-0.5	-0.3	-1.4	0.8	1.8	2.1	8.1	-1.6	4.5
CCCN(Cc1ccc(N(C)C)cc1)CC1CC1	-3.9	0.0	0.7	-15.9	-0.4	30.0	nt	nt	nt	0.6
CCOC(=O)C1CCN(C(=O)C2(NC(=O)Nc3ccccc3Cl)CCCCC2)CC1	-2.9	4.9	-0.2	-0.4	-1.0	-1.1	nt	nt	nt	-22.7
Cc1ccc(C(C)C)c(OCC(=O)NC(=S)Nc2ccccc2N2CCOCC2)c1	3.2	8.3	-11.7	nt	-0.6	-0.6	6.2	11.9	0.2	12.3
Cc1cc(S(=O)(=O)Nc2c(NC3CCCCC3)c3ccccc3oc2=O)ccc1F	3.5	-3.1	6.2	-6.2	1.2	-3.8	23.8	12.4	5.0	-3.7
CC(=O)c1ccc(N2CCN(C(=O)C3CCN(S(=O)(=O)c4ccc5c(c4)CC(C)N5C(C)=O)CC3)CC2)cc1 (configuration not stated)	5.7	-3.6	-9.8	-0.6	-0.4	0.2	-19.0*	-13.5*	5.9*	17.1
Cc1ccc(NC(=O)CCC(=O)N/N=C/c2ccco2)c(C)c1	0.5	-0.1	-3.5	5.4	1.1	3.0	nt	nt	nt	-10.1
Cc1c(C(O)CN2CCC(C(N)=O)CC2)c2ccccc2n1C (configuration not stated)	3.8	4.4	1.9	2.7	1.1	-15.2	nt	nt	nt	-8.7
O=C(Cc1ccccc1)NCC1OCCc2ccccc21 (configuration not stated)	6.5	-0.4	6.7	6.1	-0.2	0.0	2.1	-3.6	-6.3	-16.1
CN(C)S(=O)(=O)Oc1cc(Cl)ccc1C(=O)Nc1ccc(F)cc1F	nt	-5.4	1.4	-1.0	0.8	9.7	-1.0	-3.5	-3.5	-12.9
Cc1cc(C)c2cc(CN(Cc3nnnn3Cc3ccc(F)cc3)C3CCCC3)c(=O)[nH]c2c1	1.2	6.5	-3.7	-8.7	0.8	6.1	nt	nt	nt	nt
CCCCOC(=O)CNc1n[nH]c(=S)[nH]c1=O	1.9	-7.0	-3.9	14.2	-0.5	3.5	nt	nt	nt	nt
O=C(CCCC(=O)N(CC(=O)NC1CCCCC1)c1cccc(F)c1)Nc1ccccn1	1.1	-10.1	1.8	-7.5	-0.1	nt	2.2	-5.0	0.6	10.9
CC(C)OC(=O)CCNc1n[nH]c(=O)[nH]c1=O	-1.0	1.3	3.2	6.8	0.2	-14.2	nt	nt	nt	-16.4
CC(C)CC(=O)Nc1c2c(nn1-c1ccc(F)cc1)CS(=O)(=O)C2	-3.1	-8.3	-0.1	10.4	0.9	21.0	21.5	13.1	2.6	-9.1
CCn1c(SCC(N)=O)nc2c(c1=O)C1(CCCC1)Cc1ccccc1-2	2.1	-7.0	-2.2	8.5	-0.2	-8.1	nt	nt	nt	8.4
COc1ccc2c(c1OC)C(=O)OC2Nc1nc2ccccc2s1 (configuration not stated)	-8.2	2.8	-0.9	-0.5	0.2	9.4	4.4	1.8	-1.0	0.0

Sorted by SMILES length (highest first): 5 of the compounds above.
SMILES	Beta apoptosis	Beta2AR agonist	LANA-H2A inh	Calb FLC	A1 inh	ALR H2O2 inh	Ecoli rRNA inh	Ecoli rRNA inh OD600	Ecoli rRNA inh RFP	T cruzi inh
COc1ccc(-c2ccc3c(c2)S(=O)(=O)c2cccc(C(=O)N4CCN(c5c(Cl)cncc5Cl)CC4)c2C3=O)cc1OC	4.7	24.4	-4.4	nt	2.7	-0.9	25.0	7.7	12.3	nt
Cc1cc(C)c2cc(CN(Cc3nnnn3Cc3ccc(F)cc3)C3CCCC3)c(=O)[nH]c2c1	1.2	6.5	-3.7	-8.7	0.8	6.1	nt	nt	nt	nt
O=C(CCCC(=O)N(CC(=O)NC1CCCCC1)c1cccc(F)c1)Nc1ccccn1	1.1	-10.1	1.8	-7.5	-0.1	nt	2.2	-5.0	0.6	10.9
COc1cc(CNC(=O)c2cccc(COc3ccc(Cl)cc3)c2)cc(OC)c1	-1.0	3.2	0.3	-0.9	-1.7	-1.7	-8.0	-26.6	-1.4	37.1
CC(C)OC(=O)CCNc1n[nH]c(=O)[nH]c1=O	-1.0	1.3	3.2	6.8	0.2	-14.2	nt	nt	nt	-16.4

High-throughput results as filed in PubChem BioAssay.
